Yeast UUG start – modulators of yeast start codon fidelity, primary screen, whole organism, S. cerevisiae, single point, plate reader | S. cerevisiae UUG-firefly luciferase reporter, luminescence/redox ratio | activity score, % at 18.7 µM | 350,000 tested, 0.13% active | AID 602363, 2012;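 active = replicate mean at a twofold rise or more, about +100% in these data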;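 also: firefly luciferase made from a UUG start codon reports start codon fidelity; reporter light over untreated wells divided by growth signal over untreated wells; some hits fall short of that in this replicate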
Env fusion inh – inhibitors of HIV-1 Env-driven cell-cell fusion, primary screen, HeLa-JRFL effector, CEM21 target cells, luciferase; inhibition, % at 12.3 µM; 360,000 tested, 1.1% active;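 active = mean replicate inhibition score of at least 50 and every replicate individually at or above 50; inconclusive = only one of the two criteria met; inactive = mean below 50 and not all replicates reaching 50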;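 also: 0% = plate neutral controls and 100% = maraviroc near 300 nM; one replicate is shown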
An asterisk follows results filed as active; u = inconclusive; [ ] = remark or other dose. The list is partial; count on the stated rates, not on these rows.

Yeast UUG start,Env fusion inh,Structure
-5,14[16.7 µM],CN1CCN(C(=O)C[C@@H]2C[C@@H]3c4cc(NC(=O)NC5CCCCC5)ccc4O[C@@H]3[C@@H](CO)O2)CC1
8,1[16.7 µM],C[C@@H]1CCCCO[C@H](CN(C)C(=O)Nc2ccc3c(c2)OCO3)[C@H](C)CN([C@H](C)CO)C(=O)c2cc(NC(=O)CCCN(C)C)ccc2O1
-6,-20[16.7 µM],O=C(C[C@@H]1C[C@@H]2c3cc(NC(=O)Nc4ccc(C(F)(F)F)cc4)ccc3O[C@@H]2[C@@H](CO)O1)NCc1ccc2c(c1)OCO2
-1,11[16.7 µM],C[C@H]1CN([C@@H](C)CO)C(=O)Cc2cc(NC(=O)Nc3ccc(C(F)(F)F)cc3)ccc2O[C@@H]1CN(C)CC1CCCCC1
-12,-2[16.7 µM],CC(=O)N(C)C[C@H]1Oc2cc(C#CCN(C)C)ccc2S(=O)(=O)N([C@@H](C)CO)C[C@@H]1C
-5,-14[16.7 µM],C[C@H](CO)N1C[C@H](C)[C@H](CN(C)Cc2ccccc2)Oc2c(NC(=O)Nc3cccc4ccccc34)cccc2C1=O
16,32[16.7 µM],C/C=C/c1cnc2c(c1)C(=O)N([C@@H](C)CO)C[C@H](C)[C@@H](CN(C)S(=O)(=O)c1ccc(F)cc1)O2
9,0[16.7 µM],N#C[C@H]1[C@H](c2ccc(-c3cccnc3)cc2)[C@@H](CO)N1C(=O)C1CCC1
31,29[16.7 µM],CCCNC(=O)C[C@@H]1CC[C@H]2[C@H](COc3ccc(NS(=O)(=O)c4ccccc4C)cc3C(=O)N2C)O1
5,1[16.7 µM],COc1ccc(NC(=O)Nc2ccc3c(c2)C(=O)N([C@H](C)CO)C[C@H](C)[C@H](CN(C)Cc2ccccc2)OCCCC[C@@H](C)O3)cc1
-9,-25[16.7 µM],CC(C)NC(=O)N(C)C[C@H]1Oc2c(NC(=O)C3CCOCC3)cccc2C(=O)N([C@@H](C)CO)C[C@@H]1C
-6,u,C[C@@H]1CN([C@H](C)CO)C(=O)c2cc(NC(=O)c3ccccc3)ccc2O[C@@H](C)CCCCO[C@H]1CN(C)C(=O)Nc1cccc2ccccc12
-11,-32[16.7 µM],C[C@@H]1CCCCO[C@@H](CN(C)C(=O)Nc2cccc3ccccc23)[C@H](C)CN([C@H](C)CO)C(=O)c2cc(NS(=O)(=O)c3cccs3)ccc2O1
-2,-9[16.7 µM],O=C(Cc1ccncc1)N[C@@H]1CC[C@@H](CCn2cc(-c3ccccc3F)nn2)O[C@@H]1CO
-5,4[16.7 µM],CN1C(=O)c2cc(NC(=O)c3cccs3)ccc2OC[C@@H]2O[C@H](CC(=O)N3CCOCC3)CC[C@@H]21
-6,43[16.7 µM],COc1ccc(NC(=O)N(C)C[C@H]2Oc3ccc(NC(=O)Cc4cn(C)c5ccccc45)cc3CC(=O)N([C@H](C)CO)C[C@H]2C)cc1
33,-18[16.7 µM],C[C@@H]1CN([C@@H](C)CO)S(=O)(=O)c2ccc(C#CCN(C)C)cc2O[C@@H]1CN(C)CC1CC1
14,-4[16.7 µM],COc1ccc(S(=O)(=O)N(C)C[C@@H]2OCCCC[C@H](C)Oc3ccc(N(C)C)cc3C(=O)N([C@H](C)CO)C[C@H]2C)cc1
15,-49[16.7 µM],C[C@H](CO)N1C[C@H](C)[C@H](CN(C)C(=O)CC2CC2)Oc2ncc(C#Cc3cccnc3)cc2C1=O
-8,-11[16.7 µM],COCC#Cc1cnc2c(c1)C(=O)N([C@H](C)CO)C[C@@H](C)[C@@H](CN(C)C(=O)c1cccnc1)O2
-3,19[16.7 µM],CC(C)NC(=O)N(C)C[C@@H]1Oc2c(NS(=O)(=O)c3cn(C)cn3)cccc2C(=O)N([C@H](C)CO)C[C@@H]1C
1,-3[16.7 µM],COCCNC(=O)C[C@H]1CC[C@@H]2[C@H](COC[C@@H](O)CN2C(=O)Nc2ccc3c(c2)OCO3)O1
-12,-6[16.7 µM],C[C@@H]1CCCCO[C@@H](CN(C)S(=O)(=O)c2cccs2)[C@H](C)CN([C@H](C)CO)C(=O)c2cc(NC(=O)Nc3ccc(F)cc3)ccc2O1
-1,12[16.7 µM],COc1ccc(S(=O)(=O)Nc2ccc3c(c2)CC(=O)N([C@@H](C)CO)C[C@@H](C)[C@H](CN(C)Cc2ccc(Cl)c(Cl)c2)O3)cc1
-17,-17[16.7 µM],C[C@@H]1CN([C@H](C)CO)C(=O)c2cc(NS(=O)(=O)c3ccc(Cl)cc3)ccc2O[C@@H](C)CCCCO[C@@H]1CN(C)C(=O)Cc1ccccc1
6,11[16.7 µM],O=C(O)C[C@H]1CC[C@H](NC(=O)c2ccccc2F)[C@H](CO)O1
3,-4[16.7 µM],C[C@@H]1CCCCO[C@@H](CN(C)S(=O)(=O)c2cn(C)cn2)[C@@H](C)CN([C@H](C)CO)C(=O)c2cc(NC(=O)Nc3ccc4c(c3)OCO4)ccc2O1
-5,-2[16.7 µM],C[C@@H]1CN([C@H](C)CO)C(=O)c2cc(C#CCN(C)C)cnc2O[C@@H]1CN(C)Cc1ccc(C(=O)O)cc1
0,2[16.7 µM],COc1ccc(NC(=O)Nc2ccc3c(c2)C(=O)N([C@@H](C)CO)C[C@H](C)[C@H](CN(C)C(=O)NC2CCCCC2)OCCCC[C@@H](C)O3)cc1
6,10[16.7 µM],C[C@@H]1CN([C@@H](C)CO)C(=O)c2cc(C#CCc3ccccc3)cnc2O[C@H]1CN(C)C(=O)C1CCOCC1
9,-64[16.7 µM],Cc1noc(C)c1NC(=O)Nc1ccc2c(c1)CC(=O)N([C@H](C)CO)C[C@H](C)[C@H](CN(C)Cc1ccc(Oc3ccccc3)cc1)O2
15,16[16.7 µM],CO[C@@H]1CN(C)C(=O)c2ccc(NS(C)(=O)=O)cc2OC[C@H](C)N(CCC(F)(F)F)C[C@H]1C
15,-3[16.7 µM],COc1ccc(NC(=O)Nc2ccc3c(c2)C(=O)N([C@H](C)CO)C[C@@H](C)[C@@H](CN(C)C(=O)Nc2ccc4c(c2)OCO4)O3)cc1
-5,-5[16.7 µM],CCCNC(=O)N(C)C[C@H]1Oc2cc(C3=CCCC3)ccc2S(=O)(=O)N([C@H](C)CO)C[C@@H]1C
-9,-15[16.7 µM],COc1cccc(-c2cnc3c(c2)C(=O)N([C@@H](C)CO)C[C@@H](C)[C@@H](CN(C)Cc2cccnc2)O3)c1
-2,5[16.7 µM],COCC#Cc1cnc2c(c1)C(=O)N([C@@H](C)CO)C[C@H](C)[C@H](CN(C)C(=O)c1ccc(F)cc1)O2
-7,-20[16.7 µM],C/C=C/c1ccc([C@H]2[C@@H](CO)N(c3ncc(CC)s3)[C@H]2C#N)cc1
0,-33[16.7 µM],COc1ccc(S(=O)(=O)Nc2cccc3c2O[C@H](CN(C)C(=O)Nc2cccc4ccccc24)[C@H](C)CN([C@@H](C)CO)C3=O)cc1
-2,u,C[C@H](CO)N1C[C@H](C)[C@H](CN(C)C(=O)c2ccccn2)Oc2cc(C#Cc3ccccc3)ccc2S1(=O)=O
4,-11[16.7 µM],C[C@@H]1CN([C@@H](C)CO)C(=O)c2cccc(NC(=O)c3nc4ccccc4s3)c2O[C@H]1CN(C)S(=O)(=O)c1cccs1
0,-14[16.7 µM],CCC(=O)Nc1ccc2c(c1)OC[C@H](C)N(Cc1cccc(F)c1)C[C@@H](C)[C@H](OC)CN(C)C2=O
-7,28[16.7 µM],C[C@@H]1CN([C@@H](C)CO)C(=O)c2cc(NC(=O)Nc3ccc(F)cc3)ccc2O[C@@H](C)CCCCO[C@@H]1CN(C)Cc1ccc(C(F)(F)F)cc1
-2,13[16.7 µM],C[C@H](CO)N1C[C@H](C)[C@H](CN(C)C(=O)C2CCC2)Oc2cc(C#Cc3ccncc3)ccc2S1(=O)=O
-7,-33[16.7 µM],C[C@@H]1CN([C@H](C)CO)C(=O)c2cc(N(C)C)ccc2O[C@@H](C)CCCCO[C@@H]1CN(C)Cc1ccccc1
22,15[16.7 µM],C[C@@H]1CN([C@@H](C)CO)C(=O)c2cc(NS(=O)(=O)c3ccc(F)cc3)ccc2O[C@@H](C)CCCCO[C@@H]1CN(C)S(=O)(=O)c1cccs1
-8,-16[16.7 µM],C[C@H]1CN([C@@H](C)CO)C(=O)c2cc(NC(=O)C3CC3)ccc2O[C@H]1CN(C)S(C)(=O)=O
17,5[16.7 µM],C[C@@H]1CN([C@H](C)CO)C(=O)Cc2cc(NC(=O)Nc3ccccc3)ccc2O[C@H]1CN(C)C(=O)Nc1ccc2c(c1)OCO2
-8,19[16.7 µM],CO[C@H]1CN(C)C(=O)c2cc(NC(C)=O)ccc2OC[C@@H](C)N(C(=O)CC2CC2)C[C@@H]1C
1,-25[16.7 µM],C[C@H]1CN([C@@H](C)CO)C(=O)c2cc(-c3cccc(C#N)c3)cnc2O[C@@H]1CN(C)Cc1cncnc1
8,36[16.7 µM],Cc1noc(C)c1S(=O)(=O)Nc1ccc2c(c1)C(=O)N([C@H](C)CO)C[C@@H](C)[C@H](CN(C)Cc1ccc(Cl)c(Cl)c1)OCCCC[C@@H](C)O2
-15,15[16.7 µM],O=C(CC1CC1)Nc1ccc2c(c1)[C@@H]1C[C@H](CC(=O)N3CCCCC3)O[C@H](CO)[C@@H]1O2
0,14[16.7 µM],C[C@@H]1CN([C@@H](C)CO)C(=O)c2cc(NS(=O)(=O)c3cn(C)cn3)ccc2O[C@@H](C)CCCCO[C@@H]1CN(C)C(=O)c1ccccc1
8,5[16.7 µM],C[C@@H]1CCCCO[C@@H](CN(C)S(=O)(=O)c2ccccc2)[C@@H](C)CN([C@H](C)CO)C(=O)c2cc(NC(=O)Nc3ccccc3)ccc2O1
36,-14[16.7 µM],C[C@@H]1CN([C@@H](C)CO)C(=O)c2cc(C3=CCCCC3)cnc2O[C@H]1CN(C)C(=O)Nc1ccccc1
4,1[16.7 µM],O=C(Cc1ccccc1)N[C@@H]1C=C[C@H](CC(=O)N2CCOCC2)O[C@@H]1CO
27,0[16.7 µM],C[C@@H]1CCCCO[C@@H](CN(C)CC2CC2)[C@@H](C)CN([C@@H](C)CO)C(=O)c2cc(NS(=O)(=O)c3cccs3)ccc2O1
-3,24[16.7 µM],COc1ccc(S(=O)(=O)N(C)C[C@@H]2OCCCC[C@H](C)Oc3ccc(NC(=O)Nc4ccccc4)cc3C(=O)N([C@H](C)CO)C[C@H]2C)cc1
1,18[16.7 µM],COCC#Cc1cnc2c(c1)C(=O)N([C@@H](C)CO)C[C@H](C)[C@H](CN(C)C(=O)Nc1c(C)noc1C)O2
-10,0[16.7 µM],CC(C)CC#Cc1ccc2c(c1)O[C@H](CN(C)S(=O)(=O)c1ccc(F)cc1)[C@@H](C)CN([C@H](C)CO)S2(=O)=O
-6,1[16.7 µM],C[C@@H]1CN([C@@H](C)CO)C(=O)Cc2cc(NC(=O)Nc3ccc4c(c3)OCO4)ccc2O[C@@H]1CN(C)S(=O)(=O)c1cn(C)cn1

Later entries:
Yeast UUG start,Env fusion inh,Structure
-3,15[16.7 µM],O=C(CCN1CCCCC1)NCC[C@H]1CC[C@H](NS(=O)(=O)c2cccc(F)c2)[C@H](CO)O1
1,2[16.7 µM],C[C@H](CO)N1C[C@H](C)[C@@H](CN(C)CC2CCCCC2)OCCCC[C@H](C)Oc2ccc(NC(=O)CCCCCC(=O)Nc3ccccc3N)cc2C1=O
0,15[16.7 µM],O=C(C[C@H]1C=C[C@H](NC(=O)c2ccccn2)[C@H](CO)O1)NCc1cccc(F)c1
5,-12[16.7 µM],O=C(NCC[C@H]1CC[C@H](NC(=O)C2CCCCC2)[C@@H](CO)O1)c1cnccn1
-18,-2[16.7 µM],Cc1ccc(-c2ccc3c(c2)O[C@H](CN(C)Cc2ccccn2)[C@H](C)CN([C@@H](C)CO)S3(=O)=O)cc1
-4,-43[16.7 µM],CC(C)NC(=O)Nc1ccc2c(c1)C(=O)N([C@H](C)CO)C[C@H](C)[C@@H](CN(C)S(=O)(=O)c1ccc(Cl)cc1)OCCCC[C@@H](C)O2
-17,7[16.7 µM],CC(=O)Nc1ccc2c(c1)C(=O)N(C)[C@H]1CC[C@H](CC(=O)N3CCc4ccccc4C3)O[C@H]1CO2

Quoted at random: seven compounds from above, in no set order.
Yeast UUG start,Env fusion inh,Structure
-18,-2[16.7 µM],Cc1ccc(-c2ccc3c(c2)O[C@H](CN(C)Cc2ccccn2)[C@H](C)CN([C@@H](C)CO)S3(=O)=O)cc1
0,15[16.7 µM],O=C(C[C@H]1C=C[C@H](NC(=O)c2ccccn2)[C@H](CO)O1)NCc1cccc(F)c1
-4,-43[16.7 µM],CC(C)NC(=O)Nc1ccc2c(c1)C(=O)N([C@H](C)CO)C[C@H](C)[C@@H](CN(C)S(=O)(=O)c1ccc(Cl)cc1)OCCCC[C@@H](C)O2
-17,7[16.7 µM],CC(=O)Nc1ccc2c(c1)C(=O)N(C)[C@H]1CC[C@H](CC(=O)N3CCc4ccccc4C3)O[C@H]1CO2
5,-12[16.7 µM],O=C(NCC[C@H]1CC[C@H](NC(=O)C2CCCCC2)[C@@H](CO)O1)c1cnccn1
1,2[16.7 µM],C[C@H](CO)N1C[C@H](C)[C@@H](CN(C)CC2CCCCC2)OCCCC[C@H](C)Oc2ccc(NC(=O)CCCCCC(=O)Nc3ccccc3N)cc2C1=O
-3,15[16.7 µM],O=C(CCN1CCCCC1)NCC[C@H]1CC[C@H](NS(=O)(=O)c2cccc(F)c2)[C@H](CO)O1
